# Bioassay records from PubChem.
# PABP polyA inh – PABP-poly(A) binding inhibition; P11940; PABP-poly(A) RNA binding, fluorescence polarization; inhibition, % at 35 µM; hit rate 1% among 290,000;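 active = 50% or more with normal probe brightness, or confirmed in later tests; about a fifth of its hits are not listed in these tables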;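 also: calls also rest on retests at 20 µM and on dose response follow-up; controls were probe without protein and protein plus probe with vehicle; some compounds called inactive have numbers as strong as hits; many hits fall short of the cut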
# Target sequence (P11940 whole entry, looked up): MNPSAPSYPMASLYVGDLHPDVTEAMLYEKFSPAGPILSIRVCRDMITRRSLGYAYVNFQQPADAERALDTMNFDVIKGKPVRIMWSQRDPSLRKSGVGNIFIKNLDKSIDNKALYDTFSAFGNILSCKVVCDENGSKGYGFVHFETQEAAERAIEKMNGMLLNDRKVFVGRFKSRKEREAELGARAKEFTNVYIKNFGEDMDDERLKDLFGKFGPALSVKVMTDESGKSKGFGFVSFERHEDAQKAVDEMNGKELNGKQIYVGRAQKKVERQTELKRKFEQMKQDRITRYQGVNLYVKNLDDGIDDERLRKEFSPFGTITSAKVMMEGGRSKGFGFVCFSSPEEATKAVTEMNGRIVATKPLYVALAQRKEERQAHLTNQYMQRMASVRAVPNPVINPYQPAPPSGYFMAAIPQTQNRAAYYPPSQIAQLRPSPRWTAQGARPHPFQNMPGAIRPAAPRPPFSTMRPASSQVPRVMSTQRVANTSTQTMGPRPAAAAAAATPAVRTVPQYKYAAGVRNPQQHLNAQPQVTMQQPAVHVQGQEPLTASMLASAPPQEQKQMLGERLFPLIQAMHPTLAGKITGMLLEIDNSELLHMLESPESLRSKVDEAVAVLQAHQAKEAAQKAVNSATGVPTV
# eIF4H FP inh – inhibitors of RNA binding by human eIF4H | hit rate 0.94% among 290,000 | inhibition, % at 35 µM | Q15056 | eIF4H fluorescence polarization binding assay | AID 2012;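 active = 50% or more with normal probe brightness, or confirmed in later tests; about a fifth of its hits are not listed in these tables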;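 also: calls also rest on retests at 20 µM and on dose response follow-up; 0% = protein and probe with vehicle and 100% = probe without protein; strong numbers were not always called active; many hits fall short of the cut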
# MT1-MMP act inh – blocks activation of human MT1-MMP | P50281 | HT1080 RFP-PRO-GFP cells, GFP/RFP ratio fluorescence, overnight; percent of plate control window, DMSO zero | GFP/RFP ratio change, % at 20 µM | hit rate 0.061% among 360,000;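 active = GFP/RFP ratio change of at least 30% with cell ATP level not reduced by more than half and red fluorescence within 50% of control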; also: strong numbers were not always called active
#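 Material – HT1080 RFP-PRO-GFP cells · Control set – DMSO wells and RFP-L50D-GFP cells · Incubation – overnight cell settling, then overnight compound exposure, 37 °C, 5% CO2 · Compound dosing – single-point 20 µM compound, 1% DMSO · Read-out – GFP/RFP fluorescence ratio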
# CSC inhib – cancer stem cell inhibition; cancer stem cell-like cells viability, luminescence; inhibition, % at 7.5 µM; hit rate 1.1% among 300,000;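 active = mean at 75% or more and at least half the replicates too; tested in HMLE shEcad cells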;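 also: 0% = median of negative and 100% = median of positive control wells; the first replicate is given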
# Env fusion inh – HIV envelope-mediated fusion inhibition; HeLa-JRFL Env/CEM21 cell fusion, luciferase; AID 651610; inhibition, % at 12.3 µM; hit rate 1.1% among 360,000;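 active = mean replicate inhibition score of at least 50 and every replicate individually at or above 50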;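 also: 0% = plate neutral controls and 100% = maraviroc near 300 nM; one replicate is shown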
# Yeast UUG start – alters start codon recognition fidelity in yeast; S. cerevisiae UUG-firefly luciferase reporter, luminescence/redox ratio; activity score, % at 18.7 µM; hit rate 0.13% among 350,000;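 active = replicate mean at a twofold rise or more, about +100% in these data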;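 also: firefly luciferase made from a UUG start codon reports start codon fidelity; reporter light over untreated wells divided by growth signal over untreated wells; some hits fall short of that in this replicate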
# Rce1 inh – yeast Ras-converting enzyme inhibition. calls only. Q03530. yeast membranes, quenched prenylated peptide cleavage fluorescence. AID 2563. hit rate 0.27% among 290,000;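 active = fall in fluorescence gain of 50% or more versus controls, with final raw signal at or below 3038400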;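 also: plate controls were neutral control wells for no effect and wells lacking membranes for full effect; tested at 10 µM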
# Target sequence (Q03530 whole entry, looked up): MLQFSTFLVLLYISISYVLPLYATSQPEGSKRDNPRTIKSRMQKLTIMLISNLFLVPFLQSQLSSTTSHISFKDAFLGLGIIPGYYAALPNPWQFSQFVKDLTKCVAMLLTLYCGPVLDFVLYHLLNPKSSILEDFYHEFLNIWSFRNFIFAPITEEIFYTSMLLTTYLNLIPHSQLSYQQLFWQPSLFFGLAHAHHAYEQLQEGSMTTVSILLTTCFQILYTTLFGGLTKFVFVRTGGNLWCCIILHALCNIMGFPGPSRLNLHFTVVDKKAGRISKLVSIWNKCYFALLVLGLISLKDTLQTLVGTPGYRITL
# eIF4H FP inh retest – second read-out of eIF4H FP inh, no call of its own (marks repeat the call); inhibition, %; compound at 20 µM; confirmation average;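 mean of two retest wells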
# PABP polyA inh retest – recorded beside PABP polyA inh, whose call it bears; inhibition, %; compound at 20 µM; confirmation repeats;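 mean of two retest wells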
# MT1-MMP act inh RFP – recorded beside MT1-MMP act inh, whose call it bears; RFP signal change, %; measured here: RFP expression control read;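 0 = vehicle wells; hits needed this value within 50% of zero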
# * marks the source's active call; other numbers are inactive results; i = inactive; nt = not tested or not shown.
SMILES,PABP polyA inh,eIF4H FP inh,MT1-MMP act inh,MT1-MMP act inh RFP,CSC inhib,Env fusion inh,Yeast UUG start,Rce1 inh,others
COc1cc2c(cc1OC)C(C(=O)Nc1cc(OC)c(OC)c(OC)c1)C(c1cccnc1)N(C)C2=O (stereo unspecified),-12,-9,-1,4,0,-6,0,i,
CN1OC[C@@H]2CN(C(=O)CCc3ccccc3)[C@H](c3ccc(N4CCCCC4)cc3)C[C@@H]21,nt,nt,0,4,nt,-9,13,nt,
CCC[C@H]1CN(c2ccc(OC)cc2)C(=O)[C@@H]1CC(=O)Nc1ccccc1,nt,nt,2,0,nt,-1,-7,nt,
C=CC[C@@H](CC(=O)N(CCO)Cc1ccccc1)C(=O)N[C@@H](COC(=O)[C@@H](CC=C)Cc1ccc(F)cc1)Cc1c[nH]c2ccccc12,nt,nt,-28,-23,nt,-31,7,nt,
COC(=O)c1sccc1NC(=O)Nc1cccc(F)c1,1,-4,-1,0,-10,-7,nt,i,
CN(C(=O)c1ccc(NC(=O)Cc2ccc([N+](=O)[O-])cc2)cc1)C1CC1,nt,nt,8,0,-5,10,20,nt,
Cc1cc(NC(=O)CCN2CCN(C/C=C/c3ccccc3)CC2)ccc1Br,12,3,2,-13,6,9,1,i,
CC1CCCCN1S(=O)(=O)c1ccc(S(=O)(=O)N2CCN(c3ccc(F)cc3)CC2)cc1 (stereo unspecified),7,-11,6,-2,5,nt,-8,i,
COc1ccc(C(=O)OCC(=O)N2CCCC2=O)c(OC)c1,-5,-14,4,-2,-10,-5,nt,i,
Cc1cccnc1NC(=O)c1ccc(Br)o1,nt,nt,1,9,nt,i,-15,i,
O=C(/C=C/c1ccco1)NC(=S)Nc1ccc(N2CCCC2)cc1,1.9*,93*,-5,0,67,-14,nt,i,eIF4H FP inh retest=111*;PABP polyA inh retest=58*
CCCCCOc1ccc(CSCCNC(=S)Nc2ccccc2)cc1,-14,-15,-4,-1,-18,6,nt,i,
COc1ccc(CN2C(=O)C(CC(=O)NCCCN(C)C)CC(C(=O)N(C(C)C)C(C)C)=C2C)cc1 (stereo unspecified),nt,nt,-1,1,nt,8,-13,nt,
O=C(COC(=O)CCc1ccccc1)NC1CCS(=O)(=O)C1 (stereo unspecified),nt,nt,-3,-3,1,27,0,i,
Cc1nc(=O)cc(-c2ccccc2)n1-c1ccccc1,-4,-5,-2,3,-10,nt,-4,i,
Cc1sc2ncnc(OCC(=O)N3CCN(S(=O)(=O)c4ccc(Cl)cc4)CC3)c2c1C,-3,-6,3,4,3,nt,-4,i,
CC(=O)OC(C(=O)NC1CCCCC1)c1ccc(C)cc1 (stereo unspecified),-6,-5,6,11,-18,nt,-16,i,
Cc1c(Cl)cccc1-c1ccc(C(=O)N2CCN(c3ccc([N+](=O)[O-])cc3)CC2)o1,1,-7,-8,-20,36,nt,-9,i,
COc1ccccc1-n1cnc2c(c1=O)c1nc3ccccc3nc1n2-c1ccc(C)cc1,4,10,-9,-8,-2,13,nt,i,
CC(CC(=O)Nc1cccc(Cl)c1)c1ccccc1 (stereo unspecified),12,5,-1,0,-3,6,nt,i,

# Continued, overlapping the part above by three compounds.
SMILES,PABP polyA inh,eIF4H FP inh,MT1-MMP act inh,MT1-MMP act inh RFP,CSC inhib,Env fusion inh,Yeast UUG start,Rce1 inh,others
Cc1c(Cl)cccc1-c1ccc(C(=O)N2CCN(c3ccc([N+](=O)[O-])cc3)CC2)o1,1,-7,-8,-20,36,nt,-9,i,
COc1ccccc1-n1cnc2c(c1=O)c1nc3ccccc3nc1n2-c1ccc(C)cc1,4,10,-9,-8,-2,13,nt,i,
CC(CC(=O)Nc1cccc(Cl)c1)c1ccccc1 (stereo unspecified),12,5,-1,0,-3,6,nt,i,
COc1ccc(C(c2nnnn2Cc2ccccc2)N2CCN(c3nc4ccccc4s3)CC2)cc1OC (stereo unspecified),10,6,-4,-14,30,9,-18,i,
C=CCn1c(C)cc(C(=O)COC(=O)C2CC(=O)N(CCc3ccc(OC)c(OC)c3)C2)c1C (stereo unspecified),nt,nt,1,6,17,2,1,i,
O=C(c1cc(-c2ccc3c(c2)OCO3)on1)N1CCOCC1,0,-15,-5,-1,nt,-43,-56,i,
Cc1cc(C(=O)OCC(=O)NCCc2ccccc2)c(C)o1,3,0,-4,-5,-10,nt,2,nt,
CC(=O)Nc1ccc(S(=O)(=O)NC2(C(F)(F)F)NC(=O)N(C3CCCCC3)C2=O)cc1 (stereo unspecified),3,-7,6,5,-8,-5,-2,i,
CC(=O)c1c(O)cc(=O)n(-c2ccccc2)c1-c1cccc2ccccc12,-2,1,-4,4,nt,nt,13,i,
O=C(NC1CSC/C1=N\O)c1ccccc1 (stereo unspecified),0,-6,-1,3,-14,-27,-18,i,
O=C(N[C@H]1CCC(=O)N(CCSc2ccc(Br)cc2)CC1)OCc1ccccc1,nt,nt,1,-24,58,7,10,nt,
COc1ccc(C)cc1S(=O)(=O)N(CC(=O)N1CCCC1)c1ccccc1,0,-15,-5,4,-2,-47,6,i,
CC1(C)c2[nH]c3ccccc3c2C[C@H]2C(=O)N(CCCCCO)CC(=O)N21,-4,10,1,0,-11,4,-9,i,
COc1ccc(S(=O)(=O)N2CCOCC2)cc1NC(=O)Cc1ccc(Cl)c(Cl)c1,2,5,-1,-7,2,2,nt,i,
CN(Cc1ccccc1O)CC1CCCN(CCc2ccc(Cl)cc2)C1 (stereo unspecified),4,3,6,2,61,21,-6,i,
CCCCCCCC(=O)NN=C1CCN(Cc2ccccc2)CC1,1,-7,1,5,-11,1,7,i,
CCOC(=O)c1c(-c2cccs2)csc1NC(=O)CSc1ncn[nH]1,-2,-9,2,-8,31,nt,-6,i,
CCCOc1ccc(/C(O)=C2\C(=O)C(=O)N(CCCOC)C23C(=O)N(C)c2ccccc23)cc1 (stereo unspecified),12,2,14,7,3,nt,-6,i,
CCOC(=O)c1[nH]c2c(c1-c1ccccc1)C(=O)CC(c1ccc(OCC)cc1)C2 (stereo unspecified),7,-3,16,-1,-2,-41,-18,i,
Cc1cc(N2Cc3ccccc3C2)ccc1C=O,-6,-10,nt,nt,7,-8,-8,i,
Cc1ccc(NC(=O)CCC(=O)NNS(=O)(=O)c2ccccc2)cc1C,4,-5,-1,0,-4,11,nt,i,
CC1CCCC(NC(=O)C2N(CCCN3CCCC3)C(=O)C3C(C(=O)Nc4cccc(Cl)c4)C4C=CC32O4)C1C (stereo unspecified),3,-4,2,2,6,3,-10,i,
Cc1ccc(-c2ccc(CCC(=O)O)n2NC(N)=S)cc1,-3,-6,-1,0,1,-6,-21,i,

# Ordered by molecular weight (low to high): 3 of the compounds above.
SMILES,PABP polyA inh,eIF4H FP inh,MT1-MMP act inh,MT1-MMP act inh RFP,CSC inhib,Env fusion inh,Yeast UUG start,Rce1 inh,others
Cc1cc(C(=O)OCC(=O)NCCc2ccccc2)c(C)o1,3,0,-4,-5,-10,nt,2,nt,
CC1(C)c2[nH]c3ccccc3c2C[C@H]2C(=O)N(CCCCCO)CC(=O)N21,-4,10,1,0,-11,4,-9,i,
Cc1ccc(NC(=O)CCC(=O)NNS(=O)(=O)c2ccccc2)cc1C,4,-5,-1,0,-4,11,nt,i,

# Later entries.
SMILES,PABP polyA inh,eIF4H FP inh,MT1-MMP act inh,MT1-MMP act inh RFP,CSC inhib,Env fusion inh,Yeast UUG start,Rce1 inh,others
COc1ccc(OC)c(/C=N/n2c(COc3ccccc3)n[nH]c2=S)c1,4,-8,2,4,-9,5,-16,i,
Cc1cccc(C)c1NC(=O)NC1(C(=O)NCCCN2CCOCC2)CCCCC1,15,6,4,7,nt,nt,-8,i,
COc1ccc(C(=O)O)c(OC)n1,-4,-11,3,5,-2,19,-5,i,
CCOc1ccccc1N(CC(=O)Nc1ccccc1)S(=O)(=O)c1ccccc1,-6,-7,-4,-5,-1,20,-5,i,
O=C(O)Cc1ccc(NS(=O)(=O)c2ccc3ccccc3c2)cc1,-8,1,-3,-4,-6,-5,-13,i,
CN(CCO)Cc1csc2ccc(Br)cc12,3,-11,4,0,-14,nt,-20,i,
CCCn1c(=O)c2ccccc2n2c(SCc3nnc(-c4ccccc4Br)o3)nnc12,9,5,-5,-3,-12,nt,-20,i,
O=S(=O)(Nc1nc2ccccc2nc1Cl)c1ccccc1C(F)(F)F,4,-5,5,6,1,8,-16,i,
CCOC(=O)c1ccc(Nc2nc(C)cc(C)c2C#N)cc1,-8,-7,-4,2,-7,8,-9,i,
CC(C)(C)N1CC23C=CC(C[C@@H]2C1=O)O3 (stereo partly specified),nt,nt,3,4,-17,2,-8,i,
Cc1ccc(S(=O)(=O)N2CCOCC2)cc1NC(=O)COC(=O)c1ccc(Cl)nc1,nt,nt,-3,2,-9,nt,-6,nt,
COC(=O)c1sc2ncn(CC(=O)NCCc3ccc(OC)c(OC)c3)c(=O)c2c1C,-11,4,2,5,19,12,-14,i,
CCOC(=O)C(NC(=O)N(C)C)(Nc1sc(C)c(CC)c1C#N)C(F)(F)F (stereo unspecified),-3,23,8,6,-8,16,-1,i,
O=C(O)C1CC=CCC1C(=O)Nc1cccc(C(=O)N2CCCCC2)c1 (stereo unspecified),14,10,2,-1,-20,-52,-9,i,
CC1Cc2ccccc2N1Cc1cccc(S(=O)(=O)N(C)C)c1 (stereo unspecified),3,-3,0,-11,-12,23,-14,i,
CCOC(=O)c1ccc(NC(=O)CCC(=O)NCc2ccco2)cc1,-14,7,4,2,-5,-14,-11,i,
COC(=O)c1ccccc1NC(=O)Nc1ccc(Cl)cn1,-7,0,1,-6,6,-12,nt,nt,
Cc1sc2nc(SCC(N)=O)n(-c3ccccc3)c(=O)c2c1C,-5,6,0,2,-15,11,-6,i,
Cc1c(Cl)c([N+](=O)[O-])nn1CC(=O)NCC(C)C,-9,-6,1,5,-5,-29,nt,i,
COc1ccc(-n2cnnc2SCC(=O)Nc2cccc(S(N)(=O)=O)c2)cc1,-4,-4,3,0,-3,7,3,nt,
CCc1ccccc1NC(=O)c1cc(S(=O)(=O)N2CCCC2)c[nH]1,-5,0,4,2,4,15,6,i,
CC(C)CC1NC(=O)C(CC(C)C)N(CO)C1=O (stereo unspecified),nt,nt,2,3,nt,22,-11,nt,
O=C(Nc1nc2c(s1)CCCC2)C1COc2ccccc2O1 (stereo unspecified),6,-12,1,-11,9,-97,-73,i,
CC(C)NC(=O)CNc1ccc(C(F)(F)F)cc1[N+](=O)[O-],-4,0,-2,0,0,8,nt,i,
O=C(Nc1ccc2oc(-c3cccc(F)c3)nc2c1)c1ccccc1F,-2,-3,4,-4,-11,nt,nt,i,
O=C(O)c1oc2ccc(Br)cc2c1-n1cccc1,20*,81*,-1,4,-7,-2,-17,i,eIF4H FP inh retest=95*;PABP polyA inh retest=93*
COc1ccc(NC(=O)C2CCN(S(=O)(=O)c3ccc4[nH]c(=O)oc4c3)CC2)c(OC)c1,6,3,3,-1,-14,nt,0,i,
